Source: PubChem BioAssay (National Center for Advancing Translational Sciences (NCATS))
MARV entry inh: Marburg virus entry inhibition; Marburg virus pseudotyped entry inhibition, cell reporter; control for the full effect not named in the record; about a third of the inactives were read at about 46 µM; Potency, µM (doses to about 37.8 µM), without a hit: top-dose activity change, negative = inhibition, hits mostly inhibitors; 1.8% of 300,000 active; active = well fitted inhibition curve with a large enough effect; inconclusive = small, poorly fitted or top-dose-only effect, or effect the other way; inactive = flat fitted curve, though single readings scatter; tested in HEK293 cells; about a fifth of its hits are not listed in these tables; further: on the % scale 0 is the no-effect control and ±100 the full control effect; luciferase read-out
NS1 inh: influenza NS1 inhibition; S. cerevisiae slowed by influenza A NS1, growth recovery by OD600; Potency, µM (highest dose often 46.1 µM), for the others: top-dose activity, positive = more growth; 0.4% of 270,000 active; AID 2326; active means well fitted rising curve with a large enough effect; inconclusive means small, poorly fitted or top-dose-only effect; inactive means no such curve, though single readings can be large or run the other way; further: nearly all actives have a fitted effect of over 50% in size
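A cell-based growth assay was used: compounds that relieve NS1-induced slow growth of budding yeast raise OD600. Assay medium was yeast nitrogen base with ammonium sulphate and -URA supplement, pH 6.0, with 2% galactose.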
RE007 growth inh: less growth of the S. pombe RE007 Vpr strain. S. pombe RE007 Vpr strain, BacTiter-Glo ATP luminescence, 24 h; control for the full effect not named in the record. Potency, µM (top dose mostly 92.2 µM), inactives show at the top dose activity change, negative = less growth. AID 651644. 0.21% of 360,000 active; active = well fitted falling curve with a large enough effect; inconclusive = small, poorly fitted or top-dose-only effect; inactive = no such curve, though single readings can be large or run the other way;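 further: on the % scale 0 is the no-effect control and ±100 the full control effect; nearly all actives have a fitted effect of over 50% in size; the assay follows cell death caused by Vpr and the record does not say whether a fall means rescue or toxicity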
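Fission yeast strain RE007, carrying one chromosomally integrated HIV-1 vpr copy, was seeded at OD 0.01 in PMG+AL medium with 23 nL pinned compound. After 24 h at 30 °C and 99% humidity, viability was read by BacTiter-Glo luminescence.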
Cruzain Triton: inhibitors of Trypanosoma cruzi cruzain with detergent; P25779; purified cruzain, Z-FR-AMC fluorescence, 0.01% Triton; Potency, µM, for the others: max response, negative = inhibition, hits mostly inhibitors; 0.43% of 200,000 active; AID 1478;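 further: plate controls were neutral wells for no effect and buffer without enzyme for full effect; nearly all actives have a fitted effect of over 40% in size; top concentration of the series not given in the record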
Target sequence (P25779 123-467 limits assumed): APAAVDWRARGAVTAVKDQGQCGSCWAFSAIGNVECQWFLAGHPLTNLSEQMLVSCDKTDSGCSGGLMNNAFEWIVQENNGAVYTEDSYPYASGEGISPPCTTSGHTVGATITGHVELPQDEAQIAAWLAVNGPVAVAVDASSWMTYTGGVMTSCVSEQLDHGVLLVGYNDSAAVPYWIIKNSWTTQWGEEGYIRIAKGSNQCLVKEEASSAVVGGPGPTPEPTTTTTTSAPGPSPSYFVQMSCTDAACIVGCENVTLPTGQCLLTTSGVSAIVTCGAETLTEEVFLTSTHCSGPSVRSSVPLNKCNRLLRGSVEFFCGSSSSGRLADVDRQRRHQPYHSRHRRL
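Compounds were screened in titration against cruzain (1.5 nM) with 0.01% Triton X-100 to counter colloidal aggregation. Activity was the AMC fluorescence increase over 60 s after adding 2 uM Z-FR-AMC at pH 5.5.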
StopGo reporter: FMDV 2A StopGo reporter, luciferase signal; human cells with a luciferase reporter of 2A StopGo recoding; control for the full effect not named in the record; Potency, µM (titrated, usually from 57.9 µM), for inactives: at the top dose signal change, negative = less light; 1.2% of 410,000 active; active = well fitted falling curve with a large enough effect; inconclusive = small, poorly fitted or top-dose-only effect; inactive = no such curve, though single readings can be large or run the other way; tested in HEK293T cells; further: on the % scale 0 is the no-effect control and ±100 the full control effect; nearly all actives have a fitted effect of over 45% in size; luciferase light after 4 h
SARS PLP yeast: SARS-CoV PLP inhibition in yeast; S. cerevisiae expressing SARS-CoV PLpro, growth rescue; control for the full effect not named in the record; Potency, µM (doses to about 32.9 µM), inactives show at the top dose activity, positive = growth rescue; 0.19% of 330,000 active; active means well fitted rising curve with a large enough effect; inconclusive means small, poorly fitted or top-dose-only effect; inactive means no such curve, though single readings can be large or run the other way; further: 0% is about no effect; nearly all actives have a fitted effect of over 55% in size; growth read by luminescence after 48 h
Lassa entry inh: blocks Lassa virus binding to or entry into cells. 1.2% of 300,000 active. Lassa virus pseudotype entry inhibition, cell reporter; control for the full effect not named in the record. AID 540256. Potency, µM (highest dose often 37.9 µM), inactives show at the top dose activity change, negative = inhibition, most hits filed as inhibitors; active means well fitted inhibition curve with a large enough effect; inconclusive means small, poorly fitted or top-dose-only effect, or effect the other way; inactive means flat fitted curve, though single readings scatter; tested in HEK293 cells; further: on the % scale 0 is the no-effect control and ±100 the full control effect; nearly all actives have a fitted effect of over 50% in size; luciferase read-out
Cruzain noTriton: cruzain (T. cruzi) inhibition without detergent; P25779; purified cruzain, Z-FR-AMC fluorescence, no detergent; Potency, µM, for the others: max response, negative = inhibition, most hits filed as inhibitors; 2.3% of 200,000 active;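 further: plate controls were enzyme without inhibitor for no effect and buffer without enzyme for full effect; nearly all actives have a fitted effect of over 40% in size; top concentration of the series not given in the record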
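Detergent-free condition (0.00005% Triton X-100) in acetate buffer pH 5.5 with DTT. 1.5 nM enzyme and compound were pre-mixed 15 min, then 2 uM Z-FR-AMC substrate added; reaction progress from fluorescence change between first and third reads (60 s).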
* hit, by the source's call; ? = inconclusive; . = not tested or not shown; ! = not active in a repeat; [ ] = another dose, or the depositor's remark. Unless noted, the call rests on the fitted dose curve; in most records, active means well fitted curve in the direction sought with a large enough effect; inconclusive means small, poorly fitted or top-dose-only effect, or another doubt; inactive means no such curve, though single readings can be large; an effect the other way counts as inactive or inconclusive. Potency means the concentration at half of the fitted maximal effect.

SMILES | MARV entry inh | NS1 inh | RE007 growth inh | Cruzain Triton | StopGo reporter | SARS PLP yeast | Lassa entry inh | Cruzain noTriton
Cc1cc(C)cc(NC(=O)CCC(=O)N2CCSc3ccccc32)c1 | . | 1.1% | 0.3% | -5.0% | ? | 3.4% | -18.1%[46.1 µM] | -3.6%
Cc1ccc2nc(-c3ccc(N4C(=O)CC(N5CCN(CCO)CC5)C4=O)cc3)sc2c1 (stereo not drawn) | -0.2% | 16.8% | 31.6µM* | -9.1% | 32.4%[activator] | -23.1% | 0.6% | -2.4%
Cc1ccc(S(=O)(=O)N2CCC(=O)N(C(COCc3ccccc3)C(C)C)CC2)cc1 (stereo not drawn) | -1.2% | -2.8% | -7.8% | -3.3% | -24.7% | 6.3% | ? | ?
CCN(CC)CCn1c2c(c(SCC(=O)Nc3ccc(C(C)C)cc3)nc1=O)CCC2 | ? | . | -11.3% | . | -0.3% | 0.3% | ? | .
Cc1oc(-c2ccc(Cl)cc2)nc1CN1CCC(C(=O)NCCCN2CCOCC2)CC1 | 13µM* | 4.2% | -3.6% | -3.6% | -1.7% | -9.8% | ? | 1.6%
O=C(Nc1nnc(-c2ccncc2)o1)C1CCCCC1 | ? | 5.3% | 7.4% | 6.4% | 26.3% | -17.2% | 0.5% | 14.2%
CC(C)(C)C1CCC(OCC(O)CN2CCN(Cc3ccccc3)CC2)CC1 (stereo not drawn) | . | -15.1% | 7.9% | -1.8% | ? | -36.6% | . | -11.7%
CCOC(=O)CSc1nc2sc3c(c2c(=O)n1Cc1ccccc1)CC(C(C)C)OC3 (stereo not drawn) | -5.2%[46.1 µM] | . | . | -1.5% | -14.4% | . | 2.9%[46.1 µM] | -1.0%
O=C(O)CC[C@H](NC(=O)c1ccccc1C(=O)O)C(=O)O | ? | -7.6% | . | 4.4% | . | . | . | 7.7%
COc1ccccc1CNC(=O)C1CCN(S(=O)(=O)c2ccc3c(ccn3C)c2)CC1 | . | . | . | -2.8% | -3.4% | . | -0.5%[46.1 µM] | -24.7%
CC(=O)C1C(c2ccccc2OC(F)F)NC(=O)NC1(O)C(F)(F)F (stereo not drawn) | 12.4% | 13.2% | -4.5% | 9.1% | -5.2% | 3.0% | -1.2% | 1.1%
COC(=O)COc1ccc(-c2nn(C)c(=O)c3ccccc23)cc1 | 2.7% | -43.4% | 7.4% | 2.1% | -39.3% | -3.7% | 9.6% | 0.1%
COc1ccc(COC(=O)CCN=C2NS(=O)(=O)c3ccccc32)cc1F | -3.2% | . | -3.8% | . | 1.0% | -0.3% | -6.0% | .
COC(=O)Cc1cc(=O)n(-c2nc3ccccc3[nH]2)[nH]1 | 9.9% | -64.6% | 8.9% | 12.5% | 26.2% | -28.4% | -15.6% | 11.0%
Cc1cc(Cl)ccc1NNC(=O)c1c(C)noc1C | 24.7% | -30.6% | 187.0% | . | -3.6% | -2.5% | -4.4% | .
CCCCOc1ccccc1/C=N/NC(=O)CC#N | 11.2% | . | 6.7% | . | -4.7% | 2.5% | 11.3% | .
CCN(C(=O)C(C)Sc1nnc(-c2ccncc2)n1C)C1CCCCC1 (stereo not drawn) | 4.5% | . | -9.6% | . | -5.3% | 3.6% | -1.7% | .
Cc1nn2c(=O)cc(COC(=O)c3cccc(NC(=O)c4ccc(F)cc4)c3)nc2s1 | . | . | . | 0.6% | ? | . | ? | -2.0%
O=C(NNC(=O)c1cc(-c2ccncc2)nc2ccccc12)c1ccccc1O | -26.3%[46.1 µM] | . | 2.8% | . | -15.1% | 2.3% | 3.3% | .
COc1ccccc1N1CCN(CC(=O)c2c(C)n(C)c3ccccc23)CC1 | ? | 3.4% | 15.6% | -4.3% | -27.6% | 7.0% | 7.3% | -3.6%
CCCCCCCC(=O)NNC(=O)Cc1ccccc1 | -12.5% | 20.2% | -13.4% | 6.4% | -5.3% | 1.5% | -9.9% | ?
COc1ccc(-c2nc(N)n[nH]2)cc1 | 8.2% | 0.2% | 7.0% | -6.6% | 16.6% | -8.9% | 2.2% | -9.4%
Fc1ccc(C(c2nnnn2Cc2cccs2)N2CCN(C3CCCCC3)CC2)cc1 (stereo not drawn) | 22.4µM*! | -1.7% | 2.2% | 1.3% | -26.9% | 2.4% | -16.8% | -11.0%
COc1cc(OC)c(OC)cc1/C=N/NC(=O)C[n+]1ccccc1 | 18.9% | -16.7% | 6.4% | -4.7% | -22.8% | 1.2% | 0.0% | -12.6%
Cc1ccc(COc2ccsc2C(=O)NN)cc1 | -0.7%[46.1 µM] | . | 3.3% | . | -20.0% | -8.0% | 3.3% | .
COc1ccc(-c2csc(NC(=O)c3c(OC)cccc3OC)n2)cc1 | -19.7% | -3.4% | -15.9% | . | 0.2% | 11.7% | -1.5% | .
Cc1ccc(-c2nn(-c3ccccc3)cc2C=O)o1 | ? | . | ? | . | -13.9% | -6.2% | ? | .
Cc1cc(C(=O)c2ccccc2)cc(C)c1O | -22.7% | . | 5.6% | . | 8.5% | . | -5.5% | .
O=C(C1CCN(S(=O)(=O)c2ccccc2)CC1)N1CCN(Cc2ccccc2)CC1 | 22.2% | -3.7% | 1.3% | . | -27.4% | 2.5% | -13.6% | .
Cc1ccsc1C(C(=O)NC1CCCCC1)N(C(=O)Cc1cccs1)C1CC1 (stereo not drawn) | -2.4% | -9.8% | -0.7% | 4.9% | . | -2.0% | 13.2% | -12.1%
CC(C)Cn1c(N)c(C(=O)COC(=O)c2ccc(O)cc2O)c(=O)n(C)c1=O | ? | . | 2.1% | . | ? | 3.7% | -14.0% | .
CC(C)C(=O)Nc1ccc(S(=O)(=O)Nc2ccccn2)cc1 | -14.0%[46.1 µM] | 10.1% | -16.3% | . | 18.5% | -3.2% | 14.6%[46.1 µM] | .
O=C1Nc2ccc(S(=O)(=O)NCC3CCCO3)c3cccc1c23 (stereo not drawn) | 19.7% | -1.1% | 1.9% | . | 67.0%[activator] | 1.2% | 3.8% | .
CCOc1ccccc1NC(=O)CN(C)S(=O)(=O)c1cccc2nsnc12 | -3.4% | -10.9% | 2.3% | -3.5% | ? | 21.3% | -13.8% | -9.1%
CCOc1cc(C2C(C(=O)N3CCCCC3)=C(C)NC3=C2C(=O)CCC3)cc(Br)c1O (stereo not drawn) | 0.0% | -5.4% | 1.1% | 3.5% | 13.2% | 10.8% | -25.8% | 3.3%
CSc1ccccc1NC(=O)COC(=O)c1ccccc1O | -19.5%[46.1 µM] | . | -0.2% | . | 13.7% | 0.3% | . | .
Cc1cc(C(F)(F)F)nn1-c1nc(-c2ccco2)cc(C(F)(F)F)n1 | 0.5% | 1.6% | -8.7% | -12.0% | -28.3% | 5.3% | 6.1% | -4.3%
CCCCCCCCOC(=O)CCn1[nH]c(=O)c2ccccc2c1=O | 2.2% | -146.8% | ? | -8.2% | 1.5% | -32.7% | 12.4% | 14.2%
O=C(NCCO)c1ccc(-c2nnc(Nc3ccc(OC(F)(F)Cl)cc3)c3ccccc23)cc1 | -27.3%[46.1 µM] | . | . | -7.0% | ? | . | -26.6%[46.1 µM] | ?
Cc1cn(-c2ccc(Br)cc2)[nH]c1=O | -3.1% | -3.1% | -19.8% | 4.7% | . | -6.1% | 5.5% | ?
COc1ccc(C2CC(c3ccc(C)cc3)Nc3nc(N)nn32)cc1 (stereo not drawn) | 7.5% | 1.7% | 1.3% | 2.3% | -0.2% | -2.7% | 2.1% | -0.9%
CSCCC(NC(=O)c1cccc([N+](=O)[O-])c1)C(=O)OCC(=O)N1CCCC1=O (stereo not drawn) | -1.2% | . | -9.0% | . | -20.9% | . | 27.8% | .
N#CCCN(C(=O)c1ccco1)c1ccccc1 | 10.2% | -1.7% | -9.2% | 2.9% | -7.3% | 6.0% | -6.5% | 0.7%
O=C(N/N=C/c1ccc2ccccc2c1)c1ccc(COc2ccc3c(c2)CCC3)o1 | -1.3% | 2.5% | -5.0% | -11.2% | 21.8% | -8.7% | ? | 20µM*
Cn1nnnc1SCCCNCc1cc(Cl)ccc1OCc1ccccc1F | ? | . | . | -5.5% | ? | . | -19.7%[46.1 µM] | -4.2%
COc1ccc(CNC(=O)c2c(-c3cc(Cl)c(OC)c(Cl)c3)noc2C)cc1 | . | -34.8% | 0.6% | -4.2% | -24.0% | 5.6% | . | 7.0%
Cc1c(-c2nnc(-c3ccc(C(F)(F)F)cc3)o2)cnn1-c1ccccc1 | 1.5% | -8.4% | 5.8% | 4.6% | -18.7% | -0.6% | 19.8% | -7.9%
Cc1ccc(OCC(=O)NS(=O)(=O)c2ccc(Cl)cc2)cc1 | ? | -16.3% | -16.2% | . | 1.5% | -8.3% | 20.1% | .
Oc1c(N=Nc2ccccc2)sc2ccccc12 | . | -50.5% | ? | . | -21.4% | -1.9% | . | .
O=C(NNc1ccccc1)C(=O)NNS(=O)(=O)c1ccc([N+](=O)[O-])cc1 | ? | . | 103.5% | . | -5.8% | 0.0% | ? | .
(continued)
SMILES | MARV entry inh | NS1 inh | RE007 growth inh | Cruzain Triton | StopGo reporter | SARS PLP yeast | Lassa entry inh | Cruzain noTriton
O=C(NCc1ccccc1)c1ccc(CN2CCOCC2)cc1 | 10.6% | ? | -1.1% | 5.6% | 34.4%[activator] | 3.7% | 0.4% | 1.3%
CCCN1CCC(=O)NC1=S | ? | . | 2.0% | . | 3.9% | . | 12.7%[46.1 µM] | .
NC(=O)c1ccc(NC(=O)c2ccccc2S(=O)(=O)c2ccccc2[N+](=O)[O-])cc1 | 0.7% | 5.4% | -5.9% | -2.5% | -25.1% | 1.8% | 9.8% | 8.1%
CCc1ccc(NC(=O)c2cc(C(C)C)on2)cc1 | ? | -57.9% | -23.2% | -2.6% | -56.7% | -8.2% | ? | -0.4%
O=C(COc1ccc(/C=N/NC(=O)C(=O)N2CCCCC2)cc1)Nc1ccccc1Cl | 13.2%[46.1 µM] | . | -8.8% | . | 2.0% | 2.5% | -26.5%[46.1 µM] | .
COC(=O)[C@H](CCSC)NC(=O)NCCc1ccc(F)cc1 | -6.7% | 6.8% | 10.3% | 5.0% | -7.6% | 2.0% | 1.4% | 5.3%
